Screening data as filed in PubChem BioAssay.
PV pol inh – poliovirus RNA polymerase inhibition. P03300. poliovirus polymerase elongation, fluorescence polarization; active compounds read low. 0.66% of 150,000 active. % elongation, % (compound at 16.7 µg/mL). AID 588519; in the data active = % elongation below about 90%; note: some results filed as inactive read as strong as hits
Target sequence (P03300 1749-2209 limits assumed): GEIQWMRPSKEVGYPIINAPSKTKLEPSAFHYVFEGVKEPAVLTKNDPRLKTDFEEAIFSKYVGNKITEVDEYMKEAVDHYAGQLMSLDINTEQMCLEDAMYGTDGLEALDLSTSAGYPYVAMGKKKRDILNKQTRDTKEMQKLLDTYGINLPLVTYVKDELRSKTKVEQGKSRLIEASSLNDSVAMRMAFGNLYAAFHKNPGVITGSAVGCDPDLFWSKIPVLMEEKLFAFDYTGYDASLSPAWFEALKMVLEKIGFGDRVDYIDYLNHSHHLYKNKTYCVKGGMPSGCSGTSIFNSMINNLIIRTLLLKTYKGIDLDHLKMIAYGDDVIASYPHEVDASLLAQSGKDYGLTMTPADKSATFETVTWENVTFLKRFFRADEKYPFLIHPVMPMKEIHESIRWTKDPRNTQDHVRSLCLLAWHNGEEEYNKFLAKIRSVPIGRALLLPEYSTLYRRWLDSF
PV pol inh intensity – recorded beside PV pol inh, whose call it bears; % elongation; measured here: total intensity read-out; formula for this scale not given here;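 total fluorescence in place of polarization; lower means less elongation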
* hit, by the source's call. Only part of the results is shown (hit frequency here may not be typical).

entry	SMILES	PV pol inh	PV pol inh intensity
1	CN(CCCNC(=O)Cn1ncc2c([nH]c3ccccc32)c1=O)Cc1ccccc1	103	111
2	O=c1[nH]c(C2CCCN(S(=O)(=O)c3ccccc3)C2)nc2c1nnn2Cc1ccccc1Br (configuration not stated)	110	109
3	Cc1ccc(C2CC(=O)N(Cc3ccc(F)cc3)c3c2c(C)nn3-c2nc(C)cc(C)n2)cc1 (configuration not stated)	107	109
4	CCCN(C(=O)c1c(C)oc2ncnc(N3CCOCC3)c12)c1ccc(Cl)c(Cl)c1	103	107
5	CCCN1CCN(c2ncc3c(n2)CCN(Cc2ccc(OC)c(OC)c2OC)C3)CC1	107	109
6	COc1ccccc1NS(=O)(=O)c1cn(C)c(C)n1	99	110
7	Cc1ccc2nc(N(Cc3cccnc3)C(=O)C3COc4ccccc4O3)sc2c1 (configuration not stated)	112	114
8	COc1ccc(NC(=O)CC2C(=O)N(c3ccc(OC)cc3)C(=O)N2C2CCCCC2)cc1 (configuration not stated)	107	109
9	Cc1cccc(C(=O)Nc2c3c(nn2-c2ccc(Cl)cc2)CS(=O)(=O)C3)c1	96	105
10	CN(C(=O)CSc1nc2ccc(NC(=O)c3cccc(F)c3)cc2s1)c1ccccc1	104	109

Quoted at random: 2 compounds from above, in no set order.
entry	SMILES	PV pol inh	PV pol inh intensity
2	O=c1[nH]c(C2CCCN(S(=O)(=O)c3ccccc3)C2)nc2c1nnn2Cc1ccccc1Br (configuration not stated)	110	109
8	COc1ccc(NC(=O)CC2C(=O)N(c3ccc(OC)cc3)C(=O)N2C2CCCCC2)cc1 (configuration not stated)	107	109

Returning to the listing, starting 4 compounds before the break.
entry	SMILES	PV pol inh	PV pol inh intensity
7	Cc1ccc2nc(N(Cc3cccnc3)C(=O)C3COc4ccccc4O3)sc2c1 (configuration not stated)	112	114
8	COc1ccc(NC(=O)CC2C(=O)N(c3ccc(OC)cc3)C(=O)N2C2CCCCC2)cc1 (configuration not stated)	107	109
9	Cc1cccc(C(=O)Nc2c3c(nn2-c2ccc(Cl)cc2)CS(=O)(=O)C3)c1	96	105
10	CN(C(=O)CSc1nc2ccc(NC(=O)c3cccc(F)c3)cc2s1)c1ccccc1	104	109
11	Cc1ccc(OCC(=O)Nc2nc(-c3ccc(Br)cc3)ns2)cc1	108	111
12	CC(=O)c1ccc(NS(=O)(=O)c2cnc(N)nc2)cc1	102	97
13	CCCOc1ccc(OC(=O)c2c(-c3ccccc3Cl)noc2C)cc1	99	102
14	Cc1cc2n(n1)CCCN2C(=O)Nc1ccc(C)c(Cl)c1	106	105
15	Cc1cccc(NC(=O)c2ccc(-c3ccccc3)s2)c1	100	104
16	CC(C)Cc1ccc(S(=O)(=O)Nc2cc3c(cc2N2CCOCC2)n(C)c(=O)c(=O)n3C)cc1	106	110
17	Cc1ccc(NC(=O)c2c(C)oc3ncnc(N4CCCCC4)c23)c(C)c1	102	98
18	COc1ccc(-c2nnc(SCC(=O)Nc3ccc(C)c(Cl)c3)nc2-c2ccc(OC)c(OC)c2)cc1OC	114	100
19	Cc1ccc(CNCc2c(C(=O)O)n(Cc3ccccc3C)c3cc(C)ccc23)cc1	113	111
20	CS(=O)(=O)N1CCC(n2c(C(F)(F)F)nc3cccnc32)CC1	110	112
21	O=C(NCc1ccccc1)c1c2c(nc3ccccc13)C(=O)N(C1CCCCC1)C2	102	110
22	COc1ccc(N2CCN(C(=O)C3CCN(S(=O)(=O)Cc4ccccc4)CC3)CC2)cc1	109	114
23	Cc1cccc(N2CCN(C(=O)c3cn(C)c4ccc(S(=O)(=O)N(C)C)cc4c3=O)CC2C)c1 (configuration not stated)	106	109
24	Cc1cccc(N2CCN(c3nc4ccc(C)cc4n4cnnc34)CC2C)c1 (configuration not stated)	104	109
25	Cc1ccc(-n2ncc3c(NCCCN4CCOCC4)ncnc32)cc1C	105	98
26	Cc1nnc(N2C(=O)c3oc4ccccc4c(=O)c3C2c2ccc(F)cc2)s1 (configuration not stated)	101	103
27	Cc1ccc(-c2cc(NC(=O)c3ccccc3Cl)on2)cc1	108	114
28	O=C(Nc1ccccc1C(F)(F)F)N1CCOc2ccc(Cl)cc21	101	99
29	Cc1ccc(C2c3c(oc4ccccc4c3=O)C(=O)N2c2nnc(C)s2)cc1 (configuration not stated)	107	101
30	CCN(C(=O)Cc1c(C(=O)O)c(C)cn1C)c1cccc(Cl)c1	109	112
31	Cc1cccc(OCCSc2nc3ccccc3n2CC(=O)N2CCOCC2)c1	109	111
32	COc1cc(Cl)c(C)cc1NC(=O)c1cnc(N2CCCCC2)c2ccccc12	102	99
33	Cc1cccc2nc(-c3ccccn3)c(Nc3ccc(F)cc3)n12	120	128
34	COc1ccccc1OCCSc1nc(-c2ccc(C(C)(C)C)cc2)nc2cc(=O)[nH]n12	107	109
35	COC(=O)c1cc2oc(C)cc2n1CC(=O)Nc1ccc(OC)c(OC)c1	109	106
36	COc1ccc(N(Cc2ccccc2)C(=O)c2nc(S(C)(=O)=O)ncc2Cl)cc1	118	116
37	CCOCCCNC(=O)C1CCCN(Cc2nc(-c3ccc(CC)cc3)oc2C)C1 (configuration not stated)	106	108
38	CCc1ccc(-n2c(=O)c3c4c(sc3n(CC(=O)NC(C)CC)c2=O)CCCC4)cc1 (configuration not stated)	103	101
39	COc1ccc(OC)c(Nc2ncnc3c2nc2n3CCCC2)c1	113	117
40	O=C(CCCCCn1c(=O)c2sccc2n(CC(=O)Nc2ccccc2F)c1=O)NCc1ccc2c(c1)OCO2	109	110
41	CCN(CC)C(=O)Cn1cc(SCC(=O)Nc2ccccc2C)c2ccccc21	102	105
42	CCCN(CCC)S(=O)(=O)c1ccc(N2CCCCS2(=O)=O)cc1	99	110
43	Cc1ccc(C(=O)Nc2ccc3oc(-c4ccccc4C)nc3c2)cc1	105	108
44	Cc1ccc(NC(=O)C2CCCN(S(=O)(=O)c3ccc4[nH]c(=O)ccc4c3)C2)cc1Cl (configuration not stated)	121	123
45	COc1ccc(-c2noc(CSCC(=O)Nc3cc(OC)c(OC)c(OC)c3)n2)cc1OC	107	107
46	COc1ccc(NC(=O)C(NC(=O)/C=C\c2ccc3c(c2)OCO3)c2ccccc2)cc1 (configuration not stated)	105	108
47	CCCCc1ccc(C(=O)Nc2ccc3nc(N4CCN(CC)CC4)cc(C)c3c2)cc1	108	106
48	Cc1ccc2oc3c(c(=O)c2c1)C(c1ccccc1F)N(CCCN1CCOCC1)C3=O (configuration not stated)	109	107
49	O=C(NCc1ccccc1)c1cc(Sc2cccc(Cl)c2)nc2ccccc12	107	107
50	N#Cc1ccccc1NC(=O)C(=O)NCCc1csc2nc(-c3cccc(F)c3)nn12	103	109
51	COc1ccc(-c2noc(-c3ccc(NCCc4ccccc4)c([N+](=O)[O-])c3)n2)cc1	115	121
52	CCCCOc1ccc(CNC(=O)CN2C(=O)CCn3nc(-c4cn(C)c5ccccc45)cc32)cc1	100	105
53	CCCn1c2ccccc2c2cnn(CC(=O)NCC3CCN(Cc4ccccc4C)CC3)c(=O)c21	104	108
54	Cc1c(NC(=O)c2nc3ccccc3nc2N2CCCCC2)cccc1[N+](=O)[O-]	112	114
55	Cc1cc(C)c(NC(=O)c2nc3ccccc3nc2N2CCCCC2)c(C)c1	113	114
56	O=C(Cn1ncn2c(cc3cc(F)ccc32)c1=O)NC1CCCCC1	107	111
57	CCOc1ccc(NC(=O)C(NC(=O)C2CCC(C)CC2)C(C)C)cc1 (configuration not stated)	106	108
58	COc1ccc(Cl)cc1S(=O)(=O)Nc1cccc(-c2ccc(N3CCOCC3)nn2)c1	103	109
59	CCc1ccc(C(=O)NC2=NC(c3ccccc3F)CC(=O)N2)cc1 (configuration not stated)	107	106
60	CCCN(CCC)C(=O)Cn1c(=O)n(-c2ccc(CC)cc2)c(=O)c2c3c(sc21)CCC3	106	98

(list continues)
entry	SMILES	PV pol inh	PV pol inh intensity
61	COc1ccc(-c2ccc(=O)n(CC(=O)Nc3cc(OC)ccc3OC)n2)cc1	102	101
62	Cc1cccc(NC(=O)c2ccc(-n3cnc4cccnc43)cc2)c1C	106	104
63	COc1ccc(NC(=O)Cn2ccn(Cc3ccccc3)c(=O)c2=O)cc1Cl	102	110
64	CCCCCn1c(=O)[nH]c2cc(C(=O)N3CCN(c4ccccc4F)CC3)ccc2c1=O	107	110
65	COc1cccc(NC(=O)Cn2nc(N3CCN(c4ccccc4)CC3)ccc2=O)c1	108	113
66	COc1ccc(-c2nc(SCC(=O)Nc3ccc4c(c3)OCO4)c(-c3ccc(F)cc3)[nH]2)cc1OC	112	109
67	CCOC(=O)c1[nH]c(C)c(CCC(=O)Nc2ccccc2C(=O)OC)c1C	105	109
68	Cc1cccc(NC(=O)NCCOCCn2c(=O)oc3ccccc32)c1C	105	97
69	COc1ccc2c(c1)c1c(c(=O)n(Cc3ccccc3)c(=O)n1CC(=O)Nc1c(C)cccc1C)n2C	115	113
70	Cc1c(C)n(Cc2ccccc2)c2ccc(C(=O)N3CCN(c4ccc(F)cc4)CC3)cc12	110	114
71	CCN(CC)c1ccc(C(=O)N2CCC(c3ccncc3)CC2)cc1	100	108
72	CN(C)c1ccc(CNC(=O)c2cnc3sc(N4CCCC4)nn3c2=O)cc1	103	109
73	CCCCC(=O)N1CCc2cc(OC)c(OC)cc2C1COc1ccc(C(=O)OCC)cc1 (configuration not stated)	108	111
74	Cn1c(=O)c(=O)n(C)c2cc(S(=O)(=O)N3CCN(c4ccccc4F)CC3)ccc21	99	103
75	O=C(CSc1nc2c(oc3ccccc32)c(=O)n1-c1ccccc1)Nc1ccccc1F	103	104
76	O=C(Nc1cccc(C(=O)N2CCN(c3ccccc3)CC2)c1)c1nsc2ccccc12	105	106
77	CCOc1ccc2oc(=O)cc(CN3CCN(C(=O)c4cccc(F)c4)CC3)c2c1	101	102
78	CCC(CC)C(=O)Nc1c(C(=O)N2CCN(c3ccccc3F)CC2)oc2ccccc12	101	96
79	Cc1cc(C(=O)Nc2c(C)cccc2C)n(-c2ccccc2)n1	109	111
80	CCCCNc1ccc(-c2nc(-c3ccccc3)no2)cc1[N+](=O)[O-]	108	112

Values in list order from the entries so far:
PV pol inh, entries 71 to 80, in order: 100, 103, 108, 99, 103, 105, 101, 101, 109, 108
PV pol inh intensity, entries 71 to 80, in order: 108, 109, 111, 103, 104, 106, 102, 96, 111, 112

(continued)
entry	SMILES	PV pol inh	PV pol inh intensity
81	Cc1ccc(NC(=O)CSc2nc(-c3ccc(C(C)(C)C)cc3)nc3cc(=O)[nH]n23)cc1C	108	108
82	CCN(Cc1ccccc1)Cc1c(O)ccc2c(=O)c(-c3ccccc3)c(C(F)(F)F)oc12	105	97
83	COc1ccc(Nc2nn(-c3ccc(OC(F)(F)F)cc3)nc2C(C)=O)cc1	112	118
84	CCOc1ccc(NC(=O)CC2C(=O)N(c3cccc(C)c3)C(=O)N2Cc2ccco2)cc1 (configuration not stated)	116	114
85	O=S(=O)(c1ccccc1)c1nnn2c1nc(NCc1cccs1)c1sccc12	108	110
86	CCc1ccc(NCc2cc3ccc(OC)cc3n(CC(=O)Nc3ccccc3OC)c2=O)cc1	109	110
87	O=C(CSc1ccccc1)NCc1ccc2c(c1)CCN2C(=O)c1ccccc1	110	109
88	O=C(CN1C(=O)CC(c2ccco2)Sc2ccccc21)Nc1ccc(Br)cc1 (configuration not stated)	107	111
89	COc1ccc(CCNC(=O)c2ccc3c(c2)N(Cc2cccc(Cl)c2)C(=O)c2ccccc2S3=O)cc1OC (configuration not stated)	103	108
90	COc1ccc(-n2nc(C(=O)NCCc3cccc(C)c3)c3c4ccccc4n(C)c3c2=O)cc1Cl	103	106

Structures above with a tert-butyl group:
entry	SMILES	PV pol inh	PV pol inh intensity
34	COc1ccccc1OCCSc1nc(-c2ccc(C(C)(C)C)cc2)nc2cc(=O)[nH]n12	107	109
81	Cc1ccc(NC(=O)CSc2nc(-c3ccc(C(C)(C)C)cc3)nc3cc(=O)[nH]n23)cc1C	108	108

Further records:
entry	SMILES	PV pol inh	PV pol inh intensity
91	CCC(C)NC(=O)c1sc2nc(C)c(C(=O)Nc3ccc(Cl)cc3)c(-c3ccc(Br)cc3)c2c1N (configuration not stated)	107	105
92	Cn1c(=O)c2c(nc(SCC(=O)Nc3ccc(F)cc3)n2Cc2ccccc2F)n(C)c1=O	104	106
93	COc1ccccc1N1CCN(S(=O)(=O)c2c(C)sc3ncn(CC(=O)N(C)c4ccc(C(C)C)cc4)c(=O)c23)CC1	107	112
94	CCc1cccc(C)c1NC(=O)Cn1nc(C)c2nn(-c3ccc(Cl)cc3)c(C)c2c1=O	112	102
95	CCc1ccc(-c2nn(CC(=O)Nc3ccccc3)c3c2cnc2ccc(F)cc23)cc1	108	114
96	O=C(Nc1ccc2nc(SCC(=O)N3CCCc4ccccc43)sc2c1)c1cccc(F)c1	99	102
97	Cc1cc(C)cc(NC(=O)C2CCCN(S(=O)(=O)c3cccc4nsnc34)C2)c1 (configuration not stated)	111	112
98	CC(Nc1ccc(-c2nc(-c3ccncc3)no2)cc1[N+](=O)[O-])c1ccccc1 (configuration not stated)	106	103
99	C=C(C)CSc1nc2sc3c(c2c(=O)n1Cc1ccccc1)CC(C)(CC)OC3 (configuration not stated)	104	107
100	CCOc1ccccc1NC(=O)c1cn(C2CCCC2)c(=O)c2c1c1ccccc1n2C	111	112
101	COc1cccc(NC(=O)C(=O)NCCc2csc(-c3ccc(C)cc3)n2)c1	110	112
102	COc1ccccc1NC(=O)CN1C(=O)C2(SCC(=O)N2c2ccc(F)c(F)c2)c2ccccc21 (configuration not stated)	98	101
103	COCCNC(=O)CN1C(=O)c2cccnc2Oc2ccc(Cl)cc21	112	111
104	CCc1cccc(NC(=O)CN(C)S(=O)(=O)c2cccc3cccnc23)c1	104	111
105	COc1ccc(NC(=O)Cn2c(=O)n(Cc3ccccc3)c(=O)c3oc4ccccc4c32)cc1Cl	106	112
106	CCOc1ccc(CN(CCc2ccc3c(c2)OCO3)Cc2cccc(C)c2)cc1	99	100
107	Cc1ccc(C(=O)NCc2ccc3c(c2)CCN3C(=O)c2ccc(C)cc2)cc1	108	106
108	CC(=O)Nc1cc(C(=O)NCc2ccc(C)cc2)ccc1Sc1ccc(C)cc1	112	111
109	CCN(C(=O)c1cccn(Cc2cccc(Cl)c2)c1=O)c1ccccc1	110	113
